Bioassay records as filed in PubChem.
NPYLR7 ag: agonists of mosquito NPYLR7 receptor, primary screen, cell-based, Aedes aegypti, calcium fluorescence, mosquito biting behavior | Aedes aegypti neuropeptide Y-like receptor 7 (NPYLR7) | HEK293T NPYLR7/Galpha15, GCaMP6s calcium fluorescence | activation, % at 10 µM | 270,000 compounds, 0.15% hits; in the data active = activation above about 40%;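 note: 0% = vehicle and 100% = reference agonist at the receptor; some compounds past the cut are filed as inactive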
NPYLR7 ag max-min: second read-out of NPYLR7 ag, no call of its own (marks repeat the call); activation, %; measured here: Max-Min RFU normalised activation; some inactives read as strong as hits;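 span of the calcium signal over five minutes; 0% = vehicle and 100% = native peptide agonist; compound fluorescence can raise it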
Active calls of the source: *; & = joins results of further samples.

SMILES	NPYLR7 ag	NPYLR7 ag max-min
COc1ccc(S(=O)(=O)NCC2CCCN(Cc3cnc(SC)nc3)C2)cc1 (stereo not drawn)	13	11
CC(C)N(Cc1nc(C(=O)N2CCOCC2)co1)Cc1ccc(Cl)cc1Cl	-1	-12
N#CCSc1sc2c(O)cc(=O)[nH]c2c1C#N	2	2
Cc1cc(=O)[nH]c(-n2nc(C)cc2NC(=O)Cc2cccs2)n1	3	-3
Cc1ccccc1-n1ncc(C(C)NC(=O)CN2CCCC2=O)c1C (stereo not drawn)	1&16	-1&7
O=C1CCC2(CCCO2)CCN1Cc1cccc(Oc2ccccc2)c1 (stereo not drawn)	6	3
Cc1csc(SCC(=O)Nc2sc3c(c2C(N)=O)CCC3)n1	-4	-5
OC(c1ccccn1)C1CCN(c2nncc(-c3ccccc3)n2)CC1 (stereo not drawn)	1	-1
O=C(CC(=O)NCC1CCCO1)NCC1CCCO1 (stereo not drawn)	4	2
Cc1ccccc1Oc1ncccc1CNC(=O)C1COc2ccccc2O1 (stereo not drawn)	13	10

Record cards (already shown). Values in the order: NPYLR7 ag	NPYLR7 ag max-min
`COc1ccc(S(=O)(=O)NCC2CCCN(Cc3cnc(SC)nc3)C2)cc1` (stereo not drawn) as listed: 13	11
`Cc1cc(=O)[nH]c(-n2nc(C)cc2NC(=O)Cc2cccs2)n1` as listed: 3	-3

Remaining list, next part.
SMILES	NPYLR7 ag	NPYLR7 ag max-min
COc1cc(OC)cc(C(=O)NCc2ccc(-c3ncc(-c4ccc(F)cc4)[nH]3)cc2)c1	10	19
COC(=O)C1C(=O)Oc2ccc3ccccc3c2C1C(C)(C)C(=O)OC (stereo not drawn)	-1	-4
Fc1ccc(C2CC(c3cccnc3)=Nc3nc(C(F)(F)F)nn32)cc1 (stereo not drawn)	1	2
c1ccc(COCCN2CCCC3(CCNC3)C2)cc1 (stereo not drawn)	-1	-2
COc1ccc(-c2n[nH]c(=O)c3nc(N)sc23)cc1	0	-2
Cc1cc(F)ccc1S(=O)(=O)N1c2ccnn2C(C)CC1C (stereo not drawn)	-12	-10
COc1cn(CC(=O)NC(C)(C)C)c(CN2CCN(C(C)=O)CC2)cc1=O	-2	-3
CC(=O)Nc1cccc(C(=O)OCC(=O)N(C)Cc2ccc(C)cc2)c1	12	5
CC(C)(C)c1ccc2ccccc2[o+]1	5	32
CC(O)CN(c1ccccc1)S(=O)(=O)c1cc(C(F)(F)F)ccc1Cl (stereo not drawn)	7	5

Part of the list above, in markdown.
| molecule | NPYLR7 ag | NPYLR7 ag max-min |
| --- | --- | --- |
| N#CCSc1sc2c(O)cc(=O)[nH]c2c1C#N | 2 | 2 |
| Cc1cc(=O)[nH]c(-n2nc(C)cc2NC(=O)Cc2cccs2)n1 | 3 | -3 |
| Cc1ccccc1-n1ncc(C(C)NC(=O)CN2CCCC2=O)c1C (stereo not drawn) | 1&16 | -1&7 |
| O=C1CCC2(CCCO2)CCN1Cc1cccc(Oc2ccccc2)c1 (stereo not drawn) | 6 | 3 |

(continued)
SMILES	NPYLR7 ag	NPYLR7 ag max-min
COCCN(Cc1c(-c2ccccc2)noc1N1CCSCC1)C(=O)c1ccc(F)cc1	17	15
CCc1noc(C)c1C(=O)N1CCCC(C(=O)c2ccc(-c3ccccc3)c(F)c2)C1 (stereo not drawn)	15	1
COCCN(C)S(=O)(=O)c1cc(C)cc(F)c1	6	1
Cc1cccc(-n2cc(CN(C)C(=O)CN3CCCN(C)CC3)cn2)c1	6	1
Cc1cccc(Cc2c(C)nc(C)nc2N2CCN(S(=O)(=O)c3ccc(F)cc3)CC2)c1	5	8
COc1cc(C)ccc1S(=O)(=O)N1CCN(c2nccc(-c3cc(OC)c(OC)c(OC)c3)n2)CC1	3	1
CCC(=O)N(Cc1cccc(C)c1)c1ccc(CC(=O)Nc2ccc(OC)cc2)cc1	5	2
Clc1ccccc1-c1nc(N2CCCC2)c2ccccc2n1	5	11
CCOC(=O)CCn1c(=O)c2c(nc3n(CCCOC)c(C)c(C)n23)n(C)c1=O	-1	1
C=C(C)Cn1c(=O)c2c(nc3n(CCc4ccccc4)c(C)cn23)n(C)c1=O	8	3

An excerpt of these results, comma-delimited.
compound,NPYLR7 ag,NPYLR7 ag max-min
OC(c1ccccn1)C1CCN(c2nncc(-c3ccccc3)n2)CC1 (stereo not drawn),1,-1
Cc1ccccc1Oc1ncccc1CNC(=O)C1COc2ccccc2O1 (stereo not drawn),13,10
COC(=O)C1C(=O)Oc2ccc3ccccc3c2C1C(C)(C)C(=O)OC (stereo not drawn),-1,-4
CCOC(=O)CCn1c(=O)c2c(nc3n(CCCOC)c(C)c(C)n23)n(C)c1=O,-1,1
CC(=O)Nc1cccc(C(=O)OCC(=O)N(C)Cc2ccc(C)cc2)c1,12,5
Cc1ccccc1-n1ncc(C(C)NC(=O)CN2CCCC2=O)c1C (stereo not drawn),1&16,-1&7
COc1cn(CC(=O)NC(C)(C)C)c(CN2CCN(C(C)=O)CC2)cc1=O,-2,-3

Next part.
SMILES	NPYLR7 ag	NPYLR7 ag max-min
CN1C(=S)N(c2ccccc2)C(=O)/C1=C\c1ccco1	27	23
CC1=C(C(=O)OCC(C)C)C(c2ccc(NC(=O)Nc3ccc(C)c(Cl)c3)cc2)NC(=S)N1C (stereo not drawn)	14	22
N#Cc1ccc(OCC(=O)NC(c2ccc(F)cc2)c2cccs2)cc1 (stereo not drawn)	5	2
CC(C)(C)[C@H](NS(=O)(=O)c1ccc(CCCCl)cc1)C(N)=O	1	15
O=c1[nH]nc(C2CCC2)n1-c1ccc2c(c1)OCO2	-1	-2
CC(Cc1ccc2c(c1)OCO2)CN1CCC(n2nccc2NC(=O)C(C)(C)C)CC1 (stereo not drawn)	2	-3
O=C(Nc1ccc(Cl)cc1)C(C1CCCC1)N1CCN(C(=O)c2ccccc2C(F)(F)F)CC1 (stereo not drawn)	7	11
COc1cc(CN(C)Cc2ccc(Cl)cc2)ccc1O	5	3
COC1CCCN(Cc2nc(Cc3cccc(C(F)(F)F)c3)no2)C1 (stereo not drawn)	7	5
COc1ccc2sc(N(Cc3cccnc3)C(=O)c3ccc(Br)s3)nc2c1	-3	2
O=C(CN1CCN(c2ccccc2)CC1)Nc1scc2c1c(=O)oc1ccccc12	10	14
Cc1ccc(S(=O)(=O)C2(C(=O)Nc3ncc(C)s3)CCC2)cc1	5	6
Cc1cccc(C)c1-n1nnnc1SCC(O)CN1CCC(C)CC1 (stereo not drawn)	12	12
CCCC(=O)Nc1ccc(CC(=O)NCc2ccccc2C)cc1	7	-3
Cc1cc(O)cc(C)c1NS(=O)(=O)c1ccccc1	-5	-7
O=C(c1cn[nH]n1)N1CCCOC(Cn2cccn2)C1 (stereo not drawn)	1	7
COc1ccccc1CNc1nc(Oc2cncc(Cl)c2)c2sccc2n1	6	2
CCOCCNC(=O)c1ccc(-n2nc(C(=O)OCC)cc2-c2ccccc2C)cc1	1	-3
CC(C)(C)NC(=O)CSc1nnnn1-c1ccc(O)cc1	-4	-9
Cc1ccc(/C=N\Nc2ncnc3nc[nH]c23)cc1	0	-3
Cc1nc2sccn2c1-c1nnc(SCC(=O)N2CCN(c3ccccc3)CC2)n1C	-5	-3
COCCCn1cc(C(=O)Nc2nc(C)cs2)c2nn(-c3ccccc3)c(=O)c-2c1	14	11
Cc1ccc(C(c2ccccc2)N2CCN(C(=O)c3cnn(C)c3Cl)CC2)cc1 (stereo not drawn)	2	-6
CCn1c(C2CCCN(c3cnc4ccc(Cl)cc4n3)C2)n[nH]c1=O (stereo not drawn)	19	13
Cc1ccc(S(=O)(=O)Nc2cccc(-c3ccc4nncn4n3)c2)s1	-9	-1
COc1cc(C)c(S(=O)(=O)Nc2cccc(F)c2C(=O)O)cc1OC	10	8
COCCn1cc(C(=O)N2CCN(C(=O)c3ccccc3)CC2)c2nn(-c3ccccc3)c(=O)c-2c1	1	-1
Cc1cc(C(=O)Nc2c(C)cccc2OC(F)F)c(C)s1	2&-1	1&7
Cc1ccc(C(C(=O)NCc2ccc(S(N)(=O)=O)cc2)N(C)C)cc1 (stereo not drawn)	1	-3
CCc1nnc(NC(=O)c2ccc(F)cc2Cl)s1	-2	-5
O=C(c1ccc(F)cc1)N1CCC(n2c(Cc3ccccc3)nc3ccccc32)CC1	2	-3
O=S(=O)(c1ccc(SCc2nc3ccccc3o2)nc1)N1CCOCC1	-3	-5
CCc1cccc2c(C(CC(=O)NC3CC3)c3ccc(Cl)cc3)c[nH]c12 (stereo not drawn)	26	27
CSC1=NCCN1C(=O)c1ccc(C)c([N+](=O)[O-])c1	6	1
COc1ccc(-c2cc(-c3ccccc3)nc(SCc3ccc(Cl)cc3)c2C#N)cc1	-6	-10
Cc1nc(NCc2ccc(F)cc2)nc(N(C)C)n1	-4	-5
CC(C)N(CCC(=O)N1CCN(C/C=C/c2ccccc2)CC1)c1nc(Cc2ccc(Cl)cc2)ns1	7	17
CCc1cnc2c(c1NCCC1=CCCCC1)c(=O)n(C)c(=O)n2C	6	4
Cn1nnc2c1CCN(C(=O)CCCCc1ccc(Br)cc1)C2	0	2
CCC(O)c1nc2ccccc2n1CCCOc1ccc(C)c(C)c1 (stereo not drawn)	3	4
CCOC(=O)c1ccc2c(c1)nc(SCc1cc(F)c(Cl)cc1Cl)n2Cc1ccccn1	-2	11
COc1cc(/C=C/CN2CC(=O)N(C3CCCCC3)CC(OCc3ccncc3)C2)ccc1O (stereo not drawn)	11	-3
O=C(CSc1ncnc2c1nnn2Cc1ccccc1F)N1CCCc2ccccc21	5	15
Cc1cc(C)n(C2(c3ccccc3)CC(C)C(=O)O2)n1 (stereo not drawn)	-2	11
COCCn1c(C2CC(=O)N(c3cccc(C)c3)C2)nc2ccccc21 (stereo not drawn)	-6	-8
CCc1[nH]n(-c2cccc(Cl)c2)c(=O)c1C1=C([n+]2cccc(C)c2)C(=O)N(CCOC)C1=O	-2	-1
CCN=C1SC(CC(=O)NC(N)=O)C(=O)N1CC (stereo not drawn)	-10	-14
COc1ccc(C2CCCN2C(=O)Cc2c(C)n[nH]c2C)c(OC)c1 (stereo not drawn)	-14	-18
CC1CC1C(NC(=O)N(C)Cc1cnccn1)c1ccc(Cl)cc1 (stereo not drawn)	-2	-2
CCN(CC)CCNC(=O)c1cc(NC(=O)Nc2cccc(Br)c2)ccc1N1CCCCC1	-1	6

Continued:
SMILES	NPYLR7 ag	NPYLR7 ag max-min
CCS(=O)(=O)N1CCc2cc(-c3csc(-c4ccc(OC)c(OC)c4)n3)ccc21	1	24
Cc1cccc(NC=c2c(C)c(C#N)c3nc4ccccc4n3c2=O)c1	8	5
O=C(COC(=O)C=Cc1ccc(Br)o1)NC1CCCCC1	-8	-9
Cc1ncc(CN2CCCC(C(=O)Nc3cccc(-c4cc5ccccc5[nH]4)c3)C2)s1 (stereo not drawn)	4	0
CC(C)(C)c1cc2nc(NCCOc3ccccc3)ccn2n1	-4	-8
CCC/C=C/c1cccc(C(=O)NCC)c1	14	8
CC1CCN(Cc2nnnn2CCCC(=O)NC2CCOC2)CC1 (stereo not drawn)	9	2
CCCSc1ncccc1C(=O)NCc1ccco1	-2	-13
Cc1cc(C)c(NC(=O)C2CCN(S(=O)(=O)c3cccs3)CC2)c(C)c1	-5	-11
CCOC(=O)C1CCN(C(=O)Nc2ccc(Cl)cc2C)CC1	15	7
c1cnn(CC2(CNC3CCCNC3)CC2)c1 (stereo not drawn)	4	2
CC1CCC(NC(=O)c2cc3c(s2)CS(=O)(=O)C3)CC1 (stereo not drawn)	4	3
COc1coc(C(=O)Nc2nccs2)cc1=O	10	4
Cc1ccc(CN(Cc2ccc3c(c2)OCO3)C(=O)CN(CC2CCCO2)C(=O)Nc2ccc(F)c(Cl)c2)o1 (stereo not drawn)	11	12
CC(=O)Nc1cccc(NC(=O)CCN2CCCN(C)CC2)c1	23	13
CCCC(CCC)=NNC(=S)NC1CCCCC1	-1	0
CNc1snc(C)c1C(=O)OCC(=O)NC1CCC(C)CC1 (stereo not drawn)	-2	-2
NC(N)=NN=Cc1ccc(-c2ccccc2)cc1	-6	-10
FC(F)(F)c1ccc(Cn2ccnc2CNCCN2CCOCC2)cc1	-2	4
Brc1ccc(-c2nnc3sc(CN4CCCCCC4)cn23)cc1	1	46
COc1ccc(CC2CCN(C(=O)c3ccc(F)c(F)c3F)CC2)cc1	2	8
CC(C)(C)OC(=O)N1CCC(NCc2ccc(Cl)o2)CC1	1	0
O=C(CN1CCc2ccccc2C1)NCC1CCN(c2ccccc2)C1 (stereo not drawn)	-2	-4
C1CCc2c(c(N3CCOCC3)nc3sc4c(N5CCNCC5)nnnc4c23)C1	3	0
COc1cccc(C(=O)N2CCN(c3cc(Oc4cccc(Cl)c4)ncn3)CC2C)c1 (stereo not drawn)	9	9
CCOC(=O)c1cnn(-c2ccc(C(=O)O)cc2)c1C(F)(F)F	-7	-6
Cc1ccc(CN2CCC=C(CCNC(=O)N3CCOCC3)C2)cc1	3	2
N#Cc1c(N)sc2c1CCCCC2	1	-1
COc1cccc(CNC(=O)COc2cc(C)nc(N3CCCCCC3)n2)c1OC	-4	-7
COc1ccc(C)c2sc(N(Cc3ccccn3)C(=O)c3ccc(S(=O)(=O)N(C)C)cc3)nc12	2	-4
Cc1cccc(COn2cccc(C(=O)Nc3ccccc3Cl)c2=O)c1	2	21
CCOC(=O)N1CCN(C(=O)CC(c2cccc(F)c2)c2c[nH]c3c(CC)cccc23)CC1 (stereo not drawn)	0	1
CCOC(=O)c1cc([C@@H](C)CCC=C(C)C)sc1NC(=O)[C@H](C)OC(C)=O	15	8
CC(C)n1ccc2nc3ncnn3c(-c3ccccc3)c2c1=O	-13	-18
COc1ccc(NC(=O)Cn2c(=O)n(-c3ccccc3Cl)c(=O)c3ccccc32)cc1OC	17	17
COC(=O)CN(CC(=O)Nc1ccc(C)c(C)c1)Cc1cnn(C)c1	3	0
CCOC(=O)[C@H]1C[C@@H]2O[C@H]1[C@H]1CN(C(=O)N3CCOCC3)C[C@H]1[C@@H]2O	2	13

These rows are one share of the data (hit frequency here may not be typical).
